High-throughput results: PubChem, National Center for Advancing Translational Sciences (NCATS)
TRPML1 inh = human mucolipin-1 channel inhibition. activity change, negative = inhibition, % (no concentration beside the values). Q9GZU1. actives 0.02% (n = 390,000). TRPML1-inducible cells, Ca2+ dye fluorescence, FDSS; active compounds read low; inhibition of EC80 agonist-evoked calcium signal; in the data active means activity change below about -50%; inconclusive means about -30% to -50%; inactive means above about -30%;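 further: stimulus is agonist 54-4 at its EC80 concentration; on the % scale 0 is the no-effect control and ±100 the full control effect; compound concentration not given in the record; the text of the record puts the active cut at -80%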
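Tet-induced TRPML1-DL cells loaded with Ca8 no-wash calcium dye were read kinetically on FDSS. Compound addition was followed by EC80 agonist 54-4 (4 uM final); inhibition was read over 110 s.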
TRPML1 agonist = activates the human TRPML1 channel | TRPML1-expressing cells, Ca2+ dye fluorescence, FDSS; host cell line not named in the record; reference of the full effect not given here | activation, % (no concentration beside the values) | actives 0.12% (n = 410,000) | AID 624414; in the data active = activation above about 50%; inconclusive = about 30% to 50%; inactive = below about 30%; further: 0% is about no effect; the text of the record puts the active cut at 80%
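Tet-induced TRPML1-DL cells, 1,500 per well, cultured overnight, were loaded with a no-wash Ca2+ dye for 45–90 min. Calcium fluorescence was recorded on the FDSS for 110 s after compound addition, before the EC80 agonist (4 uM 54-4) was added.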
PINK1 modulator = changes PINK1 expression; PINK1 immunofluorescence, high-content cytometry, 24 h; actives 0.2% (n = 410,000); Potency, µM (top dose mostly 76.6 µM), for the others: top-dose activation (PINK1 increase), hits mostly activators; active = well fitted activation curve with a large enough effect; inconclusive = small, poorly fitted or top-dose-only effect; inactive = flat fitted curve, though single readings scatter; cell line not stated here;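 further: potency means the concentration at half of the fitted maximal effect; % of control where 0% means no effect; nearly all actives have a fitted effect of over 65% in size; a mitochondrial uncoupler was the plate control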
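Compound titrations (5 concentrations, 24 h) on a stable cell line; DMSO and CCCP controls. Endpoint: fixed-cell PINK1 immunofluorescence with mitochondrial, cell and nuclear markers, scanned by microplate cytometer.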
D2 PAM = positive allosteric modulators of human D2 dopamine receptor | DiscoveRx D2 beta-arrestin cells, luminescence, 90 min; 100% = 57 uM dopamine signal | potentiation, % (no concentration beside the values) | actives 0.23% (n = 360,000) | AID 624464; active = potentiation of 50% or more; inconclusive = 30% to 50%; inactive = 30% or less;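 further: compound concentration not given in the record; tested on top of an EC20 dose of dopamine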
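PathHunter D2 cells, attached overnight at 37 deg C, received compound in DMSO plus dopamine at EC20 (50 nM final) for 90 min at 37 deg C. Beta-arrestin recruitment was read as luminescence after 1 h with detection reagent at ambient temperature.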
D2 agonist = human D2 receptor agonism in beta-arrestin assay; DiscoveRx PathHunter D2 beta-arrestin, luminescence, 90 min; 100% = 57 uM dopamine signal; AID 624465; activation, % (test concentration not listed); actives 0.084% (n = 360,000); in the data active = activation above about 40%; inconclusive = about 15% to 40%; inactive = below about 15%; further: compound concentration not given in the record; the text of the record calls up to 30% inactive
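DiscoveRx PathHunter D2 beta-arrestin cells (2,100/well) attached overnight, then compound-stimulated 90 min at 37 C in HBSS/10 mM HEPES/0.1% Tween-20 buffer; beta-galactosidase complementation read by luminescence after 1 h at ambient temperature. Dopamine 57 uM final (EC100) as control.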
Six1-Eya2 blk = inhibitors of human Six1/Eya2 interaction; activity change, % (test concentration not listed); AlphaScreen GST-Six1/His-Eya2 binding, biochemical; active compounds read low; control for the full effect not named in the record; actives 0.56% (n = 360,000); Q15475+O00167; in the data active = activity change below about -65%; inconclusive = about -30% to -65%; inactive = above about -30%; further: on the % scale 0 is the no-effect control and ±100 the full control effect
Target sequence (O00167 whole entry, looked up): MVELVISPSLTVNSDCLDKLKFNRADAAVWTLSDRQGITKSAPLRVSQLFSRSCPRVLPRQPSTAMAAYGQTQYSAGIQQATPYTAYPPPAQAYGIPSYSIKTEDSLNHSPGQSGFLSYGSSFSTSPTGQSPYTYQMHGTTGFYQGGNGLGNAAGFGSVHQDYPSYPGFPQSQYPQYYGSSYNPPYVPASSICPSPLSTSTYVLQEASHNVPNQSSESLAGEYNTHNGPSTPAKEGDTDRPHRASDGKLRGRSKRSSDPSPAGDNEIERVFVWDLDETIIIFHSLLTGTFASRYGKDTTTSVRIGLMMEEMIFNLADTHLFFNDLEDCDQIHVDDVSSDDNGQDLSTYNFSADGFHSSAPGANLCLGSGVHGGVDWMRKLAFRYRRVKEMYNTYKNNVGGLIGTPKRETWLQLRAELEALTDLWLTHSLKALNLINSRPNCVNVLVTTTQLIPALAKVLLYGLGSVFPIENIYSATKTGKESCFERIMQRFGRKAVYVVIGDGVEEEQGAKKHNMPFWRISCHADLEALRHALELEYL
Target sequence (Q15475 whole entry, looked up): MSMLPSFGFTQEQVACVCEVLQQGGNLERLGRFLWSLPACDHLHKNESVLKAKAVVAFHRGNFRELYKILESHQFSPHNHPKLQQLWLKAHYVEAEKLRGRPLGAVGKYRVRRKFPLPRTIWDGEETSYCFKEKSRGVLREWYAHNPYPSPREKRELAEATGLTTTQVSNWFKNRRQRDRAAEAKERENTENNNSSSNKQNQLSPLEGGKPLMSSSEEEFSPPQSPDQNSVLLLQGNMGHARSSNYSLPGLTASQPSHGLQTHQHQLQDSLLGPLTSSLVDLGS
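Compounds are tested against tagged Six1 and Eya2 proteins bridged by glutathione donor and nickel acceptor beads; after a one-hour incubation at 37 °C without light, AlphaScreen emission is recorded.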
* marks the source's active call; other numbers are inactive results; ? = inconclusive; . = no result given; & = joins results of further samples; [ ] = another dose, or the depositor's remark.

canonical_smiles	PINK1 modulator	D2 PAM	TRPML1 inh	Six1-Eya2 blk	TRPML1 agonist	D2 agonist
COc1ccc2[nH]c3c(c(=O)c2c1)CCCC3	0.6%	-6	.	-7	-0.9	-2.6
COc1cccc(C(O)c2cnc(C(C)C)n2C)c1 (stereo unspecified)	2.5%	-6	-13	2	1.2	-2.3
COc1ccc(-c2noc(CNC(=O)c3cc(OC)c(OC)c(OC)c3)n2)cc1	-0.1%	.	0	.	-0.8	.
O=C(OCc1cc(=O)n2ccsc2n1)c1ccc(O)cc1O	-0.8%	1	3	-4	-0.6	-7.3
CC1CC(C)CN(C(=O)C(C)N(C)CC(=O)Nc2ccccc2Cl)C1 (stereo unspecified)	-0.8%	-4	-6	0	-0.3	-2.8
COc1ccc(CN(C(=O)CSc2nnc(-c3ccc(OC)c(OC)c3)o2)c2ccc(F)cc2)cc1	2.3%	-15	6	-9	-0.8	-2.0
O=C(Nc1sc2c(c1C(=O)O)CCCCC2)c1cccs1	-0.6%	23	-7	-13	2.7	-1.6
CCC(=O)Nc1ccc(-c2cc3ccccc3oc2=O)cc1	0.9%	-2	-12	-4	0.2	4.2
Cn1ccc2c(-c3cncc4ccccc34)cc3c(c21)C1CCC3C1 (stereo unspecified)	2.1%	-2	-1	-20	-0.2	-3.3
CN(Cc1cccs1)C(=O)c1ccc(Cl)c(S(=O)(=O)N2CCCCCC2)c1	0.9%	-1	-1	-1	2.0	-1.8
CCc1ccc2c(c1)NC(=O)C2(C)Cc1ccc(C(F)(F)F)nc1 (stereo unspecified)	2.5%	-3	?	7	-0.2	1.3
NC(=O)CC(NC(=O)c1ccc(Br)cc1)c1ccc(NC2CCCCCC2)c([N+](=O)[O-])c1 (stereo unspecified)	?	-12	-9	-6	-0.9	-3.4
O=S(Cc1ccc(Cl)cc1)c1ccccc1 (stereo unspecified)	10%	-3	-17	11	1.4	2.2
COc1ccc(-c2c(C#N)c(SCC(=O)Nc3ccc(Br)cc3)nc(C)c2C(=O)Nc2ccccc2)cc1	1.8%	.	11	.	2.4	.
COc1cccc(/C=N/NC(=O)CCn2nnc3ccccc32)c1	-2.2%	-3	-1	-4	4.9	-0.9

In a second layout: results already given.
> CCC(=O)Nc1ccc(-c2cc3ccccc3oc2=O)cc1
  PINK1 modulator: 0.9%	D2 PAM: -2	TRPML1 inh: -12	Six1-Eya2 blk: -4	TRPML1 agonist: 0.2	D2 agonist: 4.2

> CC1CC(C)CN(C(=O)C(C)N(C)CC(=O)Nc2ccccc2Cl)C1 (stereo unspecified)
  PINK1 modulator: -0.8%	D2 PAM: -4	TRPML1 inh: -6	Six1-Eya2 blk: 0	TRPML1 agonist: -0.3	D2 agonist: -2.8

> COc1cccc(C(O)c2cnc(C(C)C)n2C)c1 (stereo unspecified)
  PINK1 modulator: 2.5%	D2 PAM: -6	TRPML1 inh: -13	Six1-Eya2 blk: 2	TRPML1 agonist: 1.2	D2 agonist: -2.3

Additional entries follow.
canonical_smiles	PINK1 modulator	D2 PAM	TRPML1 inh	Six1-Eya2 blk	TRPML1 agonist	D2 agonist
CN(C)c1ccc(CNC(=O)Cn2c(=O)oc3cc(S(=O)(=O)N4CCCCCC4)ccc32)cc1	-1.1%	.	-13	.	-0.2	.
CC(C)(C)c1ccccc1NC(=O)c1cc(-c2ccncc2)nc2ccccc12	1.9%	-3	9	-2	0.0	3.7
COc1ccc(N2CCN(CCCNC(=O)C3CCC(CNc4nc(=S)[nH]c5ccccc45)CC3)CC2)cc1 (stereo unspecified)	4.5%	-1	-6	-24	-0.5	0.8
COc1ccc(-n2nc3c(N4CCCC(C(=O)NCc5cccc(F)c5)C4)nnc(C)c3c2C)cc1 (stereo unspecified)	-0.3%	.	38	.	2.5	.
Cc1ccccc1C1=C/C(=C(\SS/C(C(=O)c2ccc(OCC(=O)O)c(Cl)c2Cl)=C2\C=C(c3ccccc3C)SS2)C(=O)c2ccc(OCC(=O)O)c(Cl)c2Cl)SS1	35µM*	9	-1	-4	0.2	-5.7
Nc1c(-c2ccccc2Cl)cnn1-c1cccc([N+](=O)[O-])c1	.	-19	-16	5	0.2	-1.9
Cc1nc2nc(SCC(=O)N(C)Cc3ccccc3)nn2c(C)c1Cc1ccccc1Cl	-0.9%	.	0	.	-0.8	.
CCCN1CCN(CCCNC(=O)CN2C(=O)c3cccnc3Oc3ccc(C)cc32)CC1	0.2%	-23	21	-2	-0.5	-1.7
O=S(=O)(Cc1ccc(Cl)cc1)N1CCCCCC1	-0.1%	-5	14	3	1.4	0.9
CCOc1ccc(-c2nnc3ccc(SCc4ccc(C(=O)OC)o4)nn23)cc1	-1.4%[38.3 µM]	1	4	-5	2.7	0.1
O=[N+]([O-])c1ccc(C2OCCO2)cc1CS(=O)(=O)c1ccccc1	2.3%	6	-17	2	-0.8	-5.0
CS(=O)(=O)c1ccc2nc(NC(=O)CCNC(=O)c3ccccc3Cl)sc2c1	-0.3%	-18	3	5	-0.4	-3.5
O=C(O)c1cccc(Cn2c(Cl)c(/C=N/NC(=O)c3ccccc3O)sc2=O)c1	-0.4%	-5	-23	0	1.0	-4.3
Cc1ccc(C)c(C(=O)CCC(=O)Nc2cccnc2)c1	-0.6%	-6	8	3	0.3	-1.5
COc1ccc(NC(=O)C2CCC(=O)N2)cc1 (stereo unspecified)	-2.6%[38.3 µM]	12	-15	-2	0.4	-2.3

Next part.
canonical_smiles	PINK1 modulator	D2 PAM	TRPML1 inh	Six1-Eya2 blk	TRPML1 agonist	D2 agonist
C=CCn1c(SCC(=O)N(C(C)CC)C2CCS(=O)(=O)C2)nc2ccccc2c1=O (stereo unspecified)	-0.4%	-28	12	-7	0.0	-2.1
Cc1ccsc1C(=O)N1CCCC(CCC(=O)NCc2ccc(F)c(F)c2)C1 (stereo unspecified)	-1.0%	5	-16	-4	1.6	0.9
CCN(C)C1CN(Cc2cn(Cc3ccc(F)cc3)nn2)S(=O)(=O)C1 (stereo unspecified)	-1.0%	.	.	-6	-0.6	.
CC(=O)N(CCO)Cc1cc2cc(C)cc(C)c2[nH]c1=O	-1.5%	2	1	5	-0.6	-0.9
COCCNC(=O)C1CC2Cn3c(nc4cc(Cl)c(Cl)cc43)C2N1C (stereo unspecified)	3.9%	-4	-17	9	-1.0	-0.3
Cc1ccc(C)c2[nH]c(=O)c(CCNC(=O)c3ccc4c(c3)OCO4)cc12	-4.5%[38.3 µM]	1	-9	4	1.0	1.8
COc1cccc(/C=N/Nc2ccc([N+](=O)[O-])cn2)c1O	-2.1%	-1	1	725	-0.1	5.2
COc1ccc(CN(CC2CCC(C(=O)O)CC2)C(=S)Nc2ccccc2C)cc1 (stereo unspecified)	-1.6%	-3	32	6	0.9	-0.9
Cc1noc(C)c1CSc1ccccc1C(=O)O	-0.1%	-5	-3	?	-0.5	-3.6
CCOc1ccc(C(=O)OCC(=O)NC2CCCC2)cc1OCC	2.7%	-3	2	12	-1.3	0.0
CCOc1cc(NS(=O)(=O)c2ccc(OC)cc2)c(OCC)cc1NC(=O)c1ccco1	1.5%[38.3 µM]	0	-9	20	-0.2	-1.9
COc1ccc(CNC(=O)C2CCN(Cc3nc(-c4ccc(Cl)cc4)oc3C)CC2)cc1	-1.5%	.	11	.	-0.6	.
C#CCOCCOCCOCCNc1nc(N2CCN(C(=O)C([C@@H](C)O)n3cc([C@@H](N)CCCCN)nn3)CC2)nc(N2CCN(C(=O)C([C@@H](C)O)n3cc([C@@H](N)CCCCN)nn3)CC2)n1 (stereo partly specified)	-0.6%	-4	9	-20	0.2	-3.7
CCOc1ccc(N(CC(=O)OC)S(=O)(=O)c2c(C)noc2C)cc1	3.2%	0	8	2	0.0	-2.2
CCC(CC)NC(=O)CO/N=C/c1ccccc1OC(F)F	-2.6%	-9	19	26	-0.6	-3.4

Going on with the list.
canonical_smiles	PINK1 modulator	D2 PAM	TRPML1 inh	Six1-Eya2 blk	TRPML1 agonist	D2 agonist
Cc1ccc(CNCc2ccc3c(c2)OCO3)c(C)c1	-0.3%	-20	6	0	-0.1	2.7
COc1cc(CCCN2CCNC[C@@H]2c2ccccc2)cc(OC)c1OC	0.0%	-7	2	33	0.9	-1.8
CCc1ccc(/C=N/Nc2ncnc3nc[nH]c23)cc1	2.0%	10	14	-8	0.1	-2.4
CCOC(=O)c1sc(NC(=O)C(C)Sc2nc(N)cc(=O)[nH]2)nc1C (stereo unspecified)	3.5%	2	-11	6	2.1	-5.0
CCC(C)(C(=O)NC1CCCCC1)N(C(=O)CNC(=O)c1ccccc1)c1c(C)n(C)n(-c2ccccc2)c1=O (stereo unspecified)	0.7%	-1	-14	-3	0.4	-3.5
Cn1cc(Cl)c(C(=O)OCC(=O)Nc2nc(-c3ccc(Br)cc3)cs2)n1	-0.1%	-3	22	6	1.7	1.3
c1cc2c(cc1C1CCCN1)OCCCO2 (stereo unspecified)	1.0%	-8	7	-1	1.9	-1.2
CCCCN(C)CCCNC(=O)CN1C(=O)CSc2ccc(S(=O)(=O)N3CCOCC3)cc21	-0.3%&0.5%	-17	-2&13	1	0.4&0.0	-0.6
COc1ccccc1C(=O)NCC(=O)NC1CCCc2ccccc21 (stereo unspecified)	7.0%	-8	11	0	-0.3	-3.1
COc1ccccc1NC(=O)NC1CCS(=O)(=O)C1 (stereo unspecified)	15%	-4	27	10	1.3	-4.4
Clc1ccc(-c2nc(NCCCN3CCOCC3)c3ccccc3n2)cc1	-1.7%	-3	23	-19	1.3	-1.2
O=c1[nH]c2ccc(Cl)cc2[nH]1	0.1%	0	-7	2	0.1	4.3
CC1CCCN(S(=O)(=O)c2cccc(C(=O)NCC3CCCO3)c2)C1 (stereo unspecified)	3.3%	4	-4	17	-0.3	-1.6
CCOC(=O)C(NCc1ccc2c(c1)OCO2)(NC(=O)c1ccccc1)C(F)(F)F (stereo unspecified)	-1.0%	-12	0	-2	3.8	-4.7
Cc1cc(C)c2sc(N(CCCN(C)C)C(=O)c3ccc(Br)s3)nc2c1	-1.4%	-20	55	-4	3.5	3.3

Later entries:
canonical_smiles	PINK1 modulator	D2 PAM	TRPML1 inh	Six1-Eya2 blk	TRPML1 agonist	D2 agonist
Cc1ccc(S(=O)(=O)N(C)c2ccc(OC(=O)CN3C(=O)NC4(CCCC4)C3=O)cc2)cc1	1.9%	-3	5	-11	-0.6	0.1
CCN(CC)S(=O)(=O)c1ccc(N2CCN(CCOc3ccc(OC)cc3)CC2)nc1	-2.2%	-10	8	2	-0.2	-3.7
Cn1nc(-c2ccccc2)c(CN2CCN(c3ncccn3)CC2)c1Cl	2.0%	7	26	-11	2.5	2.4
O=C(Nc1ccc(-n2cnnn2)cc1)C1CCCCC1	-0.2%	5	-15	6	-0.5	-0.9
COc1ccc(-c2nc(C#N)c(N3CCN(c4cccc(Cl)c4)CC3)o2)cc1OC	.	-16	-11	-1	-0.2	0.9
[N-]=C=C1C(=O)NC(=O)C([n+]2ccc(-c3ccncc3)cc2)C1c1ccccc1C(F)(F)F (stereo unspecified)	-0.3%	5	39	-2	0.0	7.0
CCOc1ccccc1NCc1cc(=O)oc2cc(C)c(O)cc12	11%	-4	13	-16	-0.8	-3.2
O=C(N/C=C/c1ccccc1)c1ccccc1	-0.6%	-8	-3	7	1.3	-0.6
O=C(O)/C(=C\c1ccc(Br)cc1)NC(=O)c1cccs1	1.6%	-5	-7	14	1.5	-5.3
